Screening results deposited in PubChem by National Center for Advancing Translational Sciences (NCATS).
nsP2pro inh = CHIKV nsP2 protease inhibition, primary qHTS. 1.1% of 31,000 active. Potency, µM (series often up to 24.9 µM), inactives show at the highest dose activity change, negative = inhibition, actives largely listed as inhibitors. FRET peptide cleavage, nsP2pro, fluorescence 1 h. Q8JUX6. AID 1964107; active means well fitted inhibition curve with a large enough effect; inconclusive means small, poorly fitted or top-dose-only effect; inactive means no such curve, though single readings can be large or run the other way; also: nearly all actives have a fitted effect of over 60% in size; a reference inhibitor and vehicle were the controls
Target sequence (Q8JUX6 whole entry, looked up): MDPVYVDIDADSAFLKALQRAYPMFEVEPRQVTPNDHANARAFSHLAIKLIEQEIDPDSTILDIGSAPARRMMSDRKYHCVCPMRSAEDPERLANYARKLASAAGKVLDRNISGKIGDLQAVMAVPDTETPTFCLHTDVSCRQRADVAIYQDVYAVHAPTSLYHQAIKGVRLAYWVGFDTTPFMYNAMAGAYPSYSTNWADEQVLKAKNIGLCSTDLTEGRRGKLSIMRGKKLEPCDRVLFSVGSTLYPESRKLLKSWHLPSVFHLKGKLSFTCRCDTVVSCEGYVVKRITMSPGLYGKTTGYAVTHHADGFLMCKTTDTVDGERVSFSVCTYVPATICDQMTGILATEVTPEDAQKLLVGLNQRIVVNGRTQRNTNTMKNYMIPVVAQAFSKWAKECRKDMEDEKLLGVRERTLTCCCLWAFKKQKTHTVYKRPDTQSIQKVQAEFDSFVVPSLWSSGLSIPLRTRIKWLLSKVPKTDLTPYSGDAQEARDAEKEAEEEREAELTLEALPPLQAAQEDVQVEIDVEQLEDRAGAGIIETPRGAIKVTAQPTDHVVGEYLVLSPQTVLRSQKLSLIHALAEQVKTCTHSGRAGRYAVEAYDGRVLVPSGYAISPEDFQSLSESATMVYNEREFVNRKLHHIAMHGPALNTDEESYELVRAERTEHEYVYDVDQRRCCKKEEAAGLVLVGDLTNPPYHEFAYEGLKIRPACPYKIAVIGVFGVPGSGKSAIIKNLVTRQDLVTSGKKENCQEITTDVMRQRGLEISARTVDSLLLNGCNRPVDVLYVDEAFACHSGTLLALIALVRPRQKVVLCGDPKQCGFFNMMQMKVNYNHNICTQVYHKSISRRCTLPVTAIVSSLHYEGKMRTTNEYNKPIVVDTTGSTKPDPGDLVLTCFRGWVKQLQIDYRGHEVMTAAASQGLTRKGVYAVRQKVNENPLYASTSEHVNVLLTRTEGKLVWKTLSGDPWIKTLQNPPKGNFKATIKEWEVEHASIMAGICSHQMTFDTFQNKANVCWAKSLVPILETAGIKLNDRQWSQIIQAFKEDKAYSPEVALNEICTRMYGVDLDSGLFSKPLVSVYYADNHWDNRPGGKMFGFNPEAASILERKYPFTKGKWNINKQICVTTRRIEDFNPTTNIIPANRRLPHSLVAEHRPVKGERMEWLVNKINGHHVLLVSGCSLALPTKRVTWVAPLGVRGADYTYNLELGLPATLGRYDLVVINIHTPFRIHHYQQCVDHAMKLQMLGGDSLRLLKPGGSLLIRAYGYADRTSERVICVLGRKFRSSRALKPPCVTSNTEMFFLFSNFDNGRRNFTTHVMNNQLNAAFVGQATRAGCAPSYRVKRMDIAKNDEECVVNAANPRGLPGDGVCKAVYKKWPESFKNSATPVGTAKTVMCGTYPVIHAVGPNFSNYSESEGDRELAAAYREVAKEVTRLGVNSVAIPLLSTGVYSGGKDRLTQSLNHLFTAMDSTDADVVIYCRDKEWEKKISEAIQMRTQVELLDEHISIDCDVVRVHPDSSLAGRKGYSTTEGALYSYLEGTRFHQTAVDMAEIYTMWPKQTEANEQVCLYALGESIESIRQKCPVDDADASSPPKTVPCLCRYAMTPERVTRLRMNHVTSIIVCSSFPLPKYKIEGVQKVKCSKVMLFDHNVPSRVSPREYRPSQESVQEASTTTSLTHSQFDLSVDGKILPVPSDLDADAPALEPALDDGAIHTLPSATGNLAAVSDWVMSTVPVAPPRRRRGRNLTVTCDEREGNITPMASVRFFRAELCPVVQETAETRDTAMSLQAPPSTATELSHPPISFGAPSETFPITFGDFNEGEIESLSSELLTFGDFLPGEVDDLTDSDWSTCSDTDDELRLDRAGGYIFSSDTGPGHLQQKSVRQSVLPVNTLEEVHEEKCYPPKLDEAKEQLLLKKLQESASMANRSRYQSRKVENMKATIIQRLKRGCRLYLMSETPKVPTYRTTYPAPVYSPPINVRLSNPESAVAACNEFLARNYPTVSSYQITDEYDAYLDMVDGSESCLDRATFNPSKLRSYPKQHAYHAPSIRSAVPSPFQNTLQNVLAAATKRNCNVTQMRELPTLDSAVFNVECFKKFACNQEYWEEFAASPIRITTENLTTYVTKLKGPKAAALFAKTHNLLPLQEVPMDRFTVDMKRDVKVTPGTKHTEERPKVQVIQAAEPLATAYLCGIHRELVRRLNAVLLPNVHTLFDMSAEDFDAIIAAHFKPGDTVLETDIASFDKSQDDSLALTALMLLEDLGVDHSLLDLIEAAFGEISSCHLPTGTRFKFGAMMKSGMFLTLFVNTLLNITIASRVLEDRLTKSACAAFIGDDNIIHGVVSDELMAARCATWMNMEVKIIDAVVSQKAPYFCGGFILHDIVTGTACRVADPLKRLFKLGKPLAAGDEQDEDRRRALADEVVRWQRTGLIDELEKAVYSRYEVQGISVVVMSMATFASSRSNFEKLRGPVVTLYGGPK
* marks the source's active call; other numbers are inactive results; i = inactive; ? = inconclusive; & = joins results of further samples; [ ] = remark or other dose. % is scaled to controls: 0 for no effect and ±100 for the full control effect; potency is read from the fitted curve at half-maximal effect. An excerpt (hit frequency here may not be typical).

SMILES	nsP2pro inh
Cc1ccc(-c2cc(C(F)(F)F)nn2-c2ccc(S(N)(=O)=O)cc2)cc1	-3%&0%
O=C(NCCCc1nc2ccccc2n1Cc1ccc(Cl)cc1)c1ccco1	2%
O=C1CCCC2=C1C(c1cnccc1C(F)(F)F)N=C(Nc1nc3ccccc3o1)N2 (stereo not drawn)	-5%
CCCN(Cc1cccs1)c1ncnc2ccc(-c3ccc4c(c3)OCO4)cc12	5%
COc1cc(Cl)c(C)cc1NC(=O)C(OC(=O)CNC(=O)c1ccccc1)c1ccccc1 (stereo not drawn)	i
CCCCn1ccc(N2CCC(c3ccccc3)CC2)c(Cl)c1=O	4%
COCCNC(=O)C(=O)NCC(c1cccnc1)N1CCN(c2ccccc2OC)CC1 (stereo not drawn)	?
CCc1cc(/C(C)=N/OCc2ccc(C3CCCCC3)c(C(F)(F)F)c2)ccc1CN1CC(C(=O)O)C1	64%[activator]
CCCn1c(C)nc2c(N(CCN(CC)CC)CCN(CC)CC)nc(C)nc21	-5%
CC[C@@H](CO)NC(=O)[C@@H]1C=C2c3cccc4[nH]cc(c34)C[C@H]2N(C)C1	-6%
Cc1c(Cl)cccc1-n1ncc(C(=O)Nc2ccc3c(c2)OCCO3)c1C1CCN(C(=O)OC(C)(C)C)CC1	-5%
O=c1c2ccccc2[se]n1-c1ccccc1	4.4µM*
COC(=O)CNC(=O)N1CCC2(CC1)CC(c1ccccc1)CN(C)C2 (stereo not drawn)	-2%
CC1CN(C(=O)N2CCC(C(=O)NCCCc3ccccc3)CC2)c2cc(Cl)ccc2O1 (stereo not drawn)	-15%
O=C(Nc1nccs1)[C@H]1CN2CC[C@H]1C[C@@H]2Cn1cc(C2(O)CCCCC2)nn1	5%[39.2 µM]
COc1cc2nc(N3CCCC3)nc(NCCCCCN3CCCC3)c2cc1OC	81%[activator]
CNc1nnc(-c2cccc3ccccc23)s1	5%
CCC[C@@H]1CC(=O)N([C@@H](CC)C(N)=O)C1	2%
COc1ccc(C2c3c(n(C)c4ccccc34)C(=O)N2CC(=O)Nc2ccccc2F)cc1 (stereo not drawn)	-4%
C/C(=C\CCC(C)C1CC(O)C2(C)C3CCC4C(C)(C)C(OC5OCC(O)C(O)C5O)CCC45CC35CC(O)C12C)C(=O)O (stereo not drawn)	4%[10 µM]
C[C@@H]1O[C@@H](O[C@H]2CC[C@@]3(C)C(CC[C@]4(C)C3CC=C3[C@@H]5CC(C)(C)CC[C@]5(C(=O)O[C@@H]5O[C@H](CO)[C@@H](O)[C@H](O)[C@H]5O)CC[C@]34C)[C@]2(C)CO)[C@H](O)[C@H](O[C@@H]2O[C@H](CO)[C@@H](O)[C@H](O)[C@H]2O)[C@H]1O (stereo partly drawn)	-11%[5.1 µM]
O=C(Nc1cccc(Cl)c1)c1ccc(F)c(S(=O)(=O)N2CCC3(CC2)OCCO3)c1	2%
C[N+]1(CC2COC(c3ccccc3)(c3ccccc3)O2)CCCCC1 (stereo not drawn)	-5%[10 µM]
COc1ccc(-c2cc(C(F)(F)F)nc(SCCC(=O)Nc3ccc(OC)c(OC)c3)n2)cc1	-20%
CC1(C)CC[C@]2(C(=O)O)CC[C@]3(C)C(=CCC4[C@@]5(C)CC[C@H](O[C@@H]6O[C@H](C(=O)O)[C@@H](O[C@@H]7OC[C@@H](O)[C@H](O)[C@H]7O)[C@H](O)[C@H]6O)C(C)(C)C5CC[C@]43C)C2C1O (stereo partly drawn)	-4%[10 µM]

Reformatted: 2 of the compounds above.
> CCCn1c(C)nc2c(N(CCN(CC)CC)CCN(CC)CC)nc(C)nc21
  nsP2pro inh: -5%
> CC[C@@H](CO)NC(=O)[C@@H]1C=C2c3cccc4[nH]cc(c34)C[C@H]2N(C)C1
  nsP2pro inh: -6%

(list continues)
SMILES	nsP2pro inh
CCOc1ccc(CCNC(=O)c2cc3ccccc3n2Cc2cc(C)cc(C)n2)cc1OCC	-9%
CCc1ccc(/C=C(/C#N)c2nc(-c3ccc(C)cc3)cs2)cc1	-8%
Cc1ccccc1NC(=O)c1c(NC(=O)C(C)Oc2cccc(Cl)c2)sc2c1CCCC2 (stereo not drawn)	-16%
COc1cccc(C2c3c(ncn(CCCN4CCOCC4)c3=N)Oc3ccc4ccccc4c32)c1 (stereo not drawn)	i
O=C(c1ccoc1)N1CCC2(CC1)CC(CO)N(C(=O)c1ccccc1)C2 (stereo not drawn)	5%
CC(C)c1ccc(NC(=O)c2cc3sc(Cl)cc3n2C)cc1	-25%
COc1ccc(NC(=O)Cn2c(=O)n(CCc3ccccc3)c(=O)c3ccccc32)cc1	-19%
CC(C)c1ccc(S(=O)(=O)c2nnn3c2nc(NCCc2ccccc2)c2sccc23)cc1	-12%
CSc1ccc(C(=O)N[C@@H]2CCCC[C@@H]2NC(=O)CNC(=O)c2cc(C(F)(F)F)ccc2NC(=O)NC(C)C)cc1	?
CC(C)CCN(Cc1ccco1)C(=O)c1cc2c(s1)-c1ccccc1OC2	-23%
Cc1cccc(OCC(=O)Nc2ccc(Cl)c(-c3nc4ccccc4[nH]3)c2)c1	6%
C[C@@H](N)C(=O)N1CCC(C(=O)Nc2cccc(-c3cccc(Cl)c3)c2)CC1	i
COc1ccc(N2CCN(C(CNC(=O)C(=O)NCc3cccnc3)c3cccnc3)CC2)cc1 (stereo not drawn)	-15%
Cc1ccc(OCC(=O)N2CCN(CCc3ccncc3)CC2)cc1C	-16%
Cc1ccc(NC(=O)Cn2c(CCC(=O)O)ccc2-c2cccs2)cc1	12%
Cc1ccc(NS(=O)(=O)c2ccc(Cl)cc2)cc1C	-1%
CC(C)C(NC(=O)c1ccc(O)cc1)C(=O)N1CCCC1C(=O)Nc1c(O)cccc1C(=O)O (stereo not drawn)	-7%[10 µM]
CC(NC1CCC2(CCNCC2)CC1)c1ccc(S(C)(=O)=O)cc1 (stereo not drawn)	i
CCOc1ccc(N(CC(=O)NCc2ccc(C)cc2)S(=O)(=O)c2c(C)[nH]c(=O)[nH]c2=O)cc1	-21%
CN(C)CCNC(=O)C1CCN(Cc2cc3ccccc3n2Cc2ccccc2)CC1	57%[activator]
COc1ccc(SCc2cc(=O)c3cc(Cl)ccc3[nH]2)cc1	-11%
Cc1cc2c(s1)c1cnn(Cc3ccc(C#N)cc3)c(=O)c1n2C	-9%
COc1ccc(OC)c(CNC(=O)Cc2ccc(NC(=O)N3CCSc4ncccc43)cc2)c1	1%
Cc1cccc(Cc2cnc(NC(=O)c3ccc4c(c3)CC(c3ccccc3)OC4=O)s2)c1 (stereo not drawn)	-14%
O=C(Nc1ccccc1C(F)(F)F)N1CC=C(c2c[nH]c3ccccc23)CC1	-9%
Carrying on:
SMILES	nsP2pro inh
COc1cccc(-n2ccn(CC(=O)NCc3ccc(C)cc3)c(=O)c2=O)c1	-15%
COc1ccc(Cl)cc1-n1nnc(-c2nc(-c3ccccc3)no2)c1C	-13%
Cc1cccc(OCC(=O)Nc2c(C(=O)N3CCN(c4ccccc4)CC3)oc3ccccc23)c1	-13%
Cc1nc(NC(C)c2nc(-c3cccnc3)no2)c2cccnc2n1 (stereo not drawn)	4%
COc1ccc(Cn2c(CNS(=O)(=O)c3ccc4c(c3)CCCC4)nc3cccnc32)cc1	1%
O=C(Nc1cccnc1)c1cnc2c(c1)N(Cc1ccccc1)CCC2	?
Oc1ccc(NCc2ccccc2OCc2ccccc2Cl)cc1	0.85µM*
CC1CCN(CC2CCCN(C(=O)NC3CCCCC3)CC2)CC1 (stereo not drawn)	i
CN(C)[C@@H]1C(=O)C(C(N)=O)=C(O)[C@@]2(O)C(=O)C3=C(O)c4c(O)ccc(Cl)c4[C@@](C)(O)C3C[C@@H]12 (stereo partly drawn)	12%
O=C(Nc1cccc(C(F)(F)F)c1)c1ccccc1NCc1ccncc1	94%[activator]
Cc1cccc(NC(=O)N2CCn3nnc(CCC(=O)NC4CC4)c3C2)c1	-28%
O=C(O)c1cn(C2CC2)c2cc(N3C[C@@H]4C[C@H]3CN4)c(F)cc2c1=O	37%
O=C1CCCC2=C1C(c1[nH]ncc1Cl)N=C(Nc1nc3cc([S+](=O)([O-])N4CCCC4)ccc3o1)N2 (stereo not drawn)	-11%
O=c1cc(-c2ccc(O)c(O)c2O)oc2ccccc12	-16%
CCc1ccc(-n2c(=O)c3c4c(sc3n(CC(=O)N3CCC(C)CC3)c2=O)CCC4)cc1	-16%
C#CCNC(=O)C1CCc2nnc(C3CCN(C(=O)Nc4ccc(Cl)cc4)CC3)n21 (stereo not drawn)	-8%
O=c1c2ccccc2n(Cc2cccc(F)c2)c(=O)n1Cc1ccccc1Cl	-21%
Cc1cc(C)nc(SCC(=O)Nc2ncc(Cc3cccc4ccccc34)s2)n1	12%
N#Cc1c(C2CCNCC2)cc(-c2c(O)cccc2OCC2CC2)nc1N	?
C[C@@H]1CC[C@]2(C(=O)O)CC[C@]3(C)C(=CCC4[C@@]5(C)C[C@@H](O)[C@@H](O)C(C)(C)C5CC[C@]43C)C2[C@]1(C)O (stereo partly drawn)	13%[10 µM]
O=C(N[C@@H]1CN(C(=O)c2ccccn2)CC[C@@H]1CO)C1CC1	i
COc1ccc(C2C=C(c3ccccc3)Nc3nc(NC(=O)c4ccc(C)cc4)nn32)cc1 (stereo not drawn)	?
COc1cccc(-c2nnnn2[C@H]2CO[C@H]3[C@@H]2OC[C@@H]3NC(=O)c2ccccc2)c1	-2%[39.2 µM]
CC(O)c1ccc(-c2ccc3ncnc(NCc4nccs4)c3c2)o1 (stereo not drawn)	10µM*
C#CCn1c(=NC(=O)c2ccc3c(c2)OCCO3)sc2cc(OC)c(OC)cc21	-9%

Filtered by structure, the compounds so far with an aryl thioether with sulfur outside any ring.
SMILES	nsP2pro inh
COc1ccc(-c2cc(C(F)(F)F)nc(SCCC(=O)Nc3ccc(OC)c(OC)c3)n2)cc1	-20%
CSc1ccc(C(=O)N[C@@H]2CCCC[C@@H]2NC(=O)CNC(=O)c2cc(C(F)(F)F)ccc2NC(=O)NC(C)C)cc1	?
COc1ccc(SCc2cc(=O)c3cc(Cl)ccc3[nH]2)cc1	-11%
Cc1cc(C)nc(SCC(=O)Nc2ncc(Cc3cccc4ccccc34)s2)n1	12%

The listing continues:
SMILES	nsP2pro inh
CN(C)Cc1cc(C[C@@H]2C[C@H](NCc3ccc(F)cc3)C2(C)C)no1	i
O=C1CCSC2(C(=O)N(Cc3ccc(F)cc3)c3ccccc32)N1c1ccc(Cl)cc1 (stereo not drawn)	-8%
C=CC(C)(C)C12CC3C(=O)NC(Cc4cnc[nH]4)C(=O)N3C1Nc1ccccc12 (stereo not drawn)	?
CCC1c2nccn2CCCN1C(=O)c1ocnc1C (stereo not drawn)	5%
COc1ccc(Cn2ccc3nc(C)c(C(=O)N4CCN(c5cc(C)ccc5C)CC4)cc3c2=O)cc1	-16%
Cc1cc(=O)[nH]c2nnc(SCC(=O)NC(C)(C)C)n12	-20%
Cc1csc(CNc2ncnc3ccc(-c4ccc5c(c4)OCCO5)cc23)c1	-10%
CC(C)(CC(=O)O)CC(=O)N1Cc2[nH]cnc2C[C@H]1C(=O)NC1CCCCC1	-8%[39.2 µM]
Cc1ccc(OCc2cc(=O)n3c(-c4ccccc4)csc3n2)cc1	-16%
COc1ccc(CCNC(=O)CCCn2c(SCC(N)=O)nc3cc4c(cc3c2=O)OCO4)cc1OC	-9%
CCCCOC(=O)NC(=O)C1c2ccccc2Oc2ccccc21	-11%
Cc1nn(CC(=O)NC2CCCCC2)c(=O)c2nc(C(C)C)sc12	-3%
Cn1c2cc(C#N)sc2c2cnn(Cc3ccc(F)cc3)c(=O)c21	-5%
Cc1noc(C)c1-c1cc2cc(CO)oc2c(-c2ccc([S+](C)(=O)[O-])cc2)n1	-2%[39.2 µM]
CC(=O)Nc1ccc(OCC(=O)N2CCC(C)CC2)nc1	i
Cc1ccc(OCCn2c(CCNC(=O)c3ccc(C(C)(C)C)cc3)nc3ccccc32)cc1	-14%
COc1cc2c(cc1OCc1ccncc1)NC(=O)C21CCN(Cc2ccccc2)CC1	5%[39.2 µM]
CC(C)=CCC[C@](C)(O[C@@H]1O[C@H](CO[C@@H]2O[C@@H](CO)[C@H](O)[C@H]2O)[C@@H](O)[C@H](O)[C@H]1O)[C@H]1CC[C@]2(C)[C@@H]1[C@H](O)C[C@@H]1[C@@]3(C)CC[C@H](O[C@@H]4O[C@H](CO)[C@@H](O)[C@H](O)[C@H]4O[C@@H]4O[C@H](CO)[C@@H](O)[C@H](O)[C@H]4O)C(C)(C)[C@@H]3CC[C@]12C	6%[10 µM]
Cn1ncc2c(C(=O)N3CCC(C#N)CC3)cc(-c3cc(Cl)cc(Cl)c3)nc21	-3%
C[C@]12CC[C@H](O)C[C@H]1CCC1C2CC[C@]2(C)[C@@H](c3ccc(=O)oc3)C[C@H]3O[C@]132 (stereo partly drawn)	-5%
COc1ccc(C(=O)N2CC[C@H](c3nc4ccccc4n3C)C2)cc1OC	1%[39.2 µM]
CCOC(=O)c1ccc(O)cc1	-3%
Cc1nc(NC2CCCCC2)c2nc(-c3ccccc3)n(CCCN3CCCCC3C)c2n1 (stereo not drawn)	1%

Shown in CSV form: entries from further up
Structure,nsP2pro inh
C=CC(C)(C)C12CC3C(=O)NC(Cc4cnc[nH]4)C(=O)N3C1Nc1ccccc12 (stereo not drawn),?
O=C1CCSC2(C(=O)N(Cc3ccc(F)cc3)c3ccccc32)N1c1ccc(Cl)cc1 (stereo not drawn),-8%
Cc1cc(=O)[nH]c2nnc(SCC(=O)NC(C)(C)C)n12,-20%
Cn1ncc2c(C(=O)N3CCC(C#N)CC3)cc(-c3cc(Cl)cc(Cl)c3)nc21,-3%
CCOC(=O)c1ccc(O)cc1,-3%
COc1ccc(Cn2ccc3nc(C)c(C(=O)N4CCN(c5cc(C)ccc5C)CC4)cc3c2=O)cc1,-16%
